Screening data from PubChem BioAssay.
Efflux pump inh: inhibitors of Candida antifungal efflux pumps expressed in yeast. S. cerevisiae Candida pump triplex, Nile Red efflux. inhibition, % at 10 µM. 330,000 tested, 0.44% active. AID 485275;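 active means plate passing quality check with inhibition over a set limit, or well fluorescence over plate mean plus 4 SD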;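 further: Nile Red retained in pooled yeast measured as flow cytometry median fluorescence; 0% = buffer negative control and 100% = Enniatin B positive control; higher means more Nile Red kept so more efflux inhibition; some compounds called inactive have numbers as strong as hits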
PP5 inh: PP5 (human) phosphatase inhibition; P53041; purified PP5c, OMFP substrate fluorescence; inhibition, % at 6.7 µM; 320,000 tested, 0.18% active; AID 1987;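 active means inhibition above the campaign's mean inhibition across all tested compounds plus 3 SD, cut at about 9.5% in these data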;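 further: 0% = DMSO only and 100% = 100 µM cantharidin control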
Target sequence (P53041 whole entry, looked up): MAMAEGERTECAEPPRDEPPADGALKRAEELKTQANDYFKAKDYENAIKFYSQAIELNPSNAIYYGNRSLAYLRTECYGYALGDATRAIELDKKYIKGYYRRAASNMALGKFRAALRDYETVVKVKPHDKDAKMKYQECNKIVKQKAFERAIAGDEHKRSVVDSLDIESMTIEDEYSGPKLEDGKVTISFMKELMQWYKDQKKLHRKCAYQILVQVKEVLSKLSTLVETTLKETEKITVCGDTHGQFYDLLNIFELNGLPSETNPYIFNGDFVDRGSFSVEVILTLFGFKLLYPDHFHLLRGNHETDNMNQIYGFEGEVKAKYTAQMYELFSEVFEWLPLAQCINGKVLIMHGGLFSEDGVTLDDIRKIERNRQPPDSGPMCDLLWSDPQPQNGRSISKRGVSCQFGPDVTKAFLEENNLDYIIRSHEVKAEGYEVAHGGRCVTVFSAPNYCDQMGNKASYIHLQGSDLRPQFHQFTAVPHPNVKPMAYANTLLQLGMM
LYPLA2 counter: counter-screen for PME1 inhibitors: inhibitors of human LYPLA2 | recombinant LYPLA2, FP-Rh probe fluorescence polarization | 320,000 tested, 0.38% active | AID 2177 | O95372 | inhibition, % at 5.9 µM;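 active means inhibition above the screen-wide mean plus 3 SD, limit set per campaign, cut at about 26% in these data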;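 further: 0% = LYPLA2 with DMSO and 100% = wells lacking LYPLA2 enzyme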
Target sequence (O95372 whole entry, looked up): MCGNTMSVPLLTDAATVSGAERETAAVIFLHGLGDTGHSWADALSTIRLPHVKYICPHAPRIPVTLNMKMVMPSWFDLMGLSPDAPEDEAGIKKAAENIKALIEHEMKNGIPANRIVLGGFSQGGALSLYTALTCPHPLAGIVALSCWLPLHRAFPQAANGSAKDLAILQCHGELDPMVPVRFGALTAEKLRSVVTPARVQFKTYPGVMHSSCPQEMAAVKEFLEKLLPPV
HCV core dimer: blocks dimerization of HCV core protein; TR-FRET GST/Flag-core106 dimerization, 1536-well; inhibition, % at 5 µM; 300,000 tested, 0.33% active; AID 1899;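 active means inhibition above the mean of all tested compounds plus 3 SD, set per screening campaign, cut at about 45% in these data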
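System: GST-tagged and Flag-tagged HCV core protein residues 1-106 / Input: core106 proteins, GST 13.5 nM and Flag 17 nM / Buffer or medium: KF-containing HEPES buffer, pH 7.45, DTT, CHAPS, BSA / Probe or stimulus: Eu-anti-GST and XL665-anti-Flag labelled anti-tag antibodies / Schedule: 4 h, 22.5 °C incubation / Technique: TR-FRET 671 and 617 nm emission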
CTSL1 counter: blocks F. hepatica cathepsin L1 in PFM18AAP counter-screen; recombinant F. hepatica cathepsin L1, Z-Leu-Arg-MCA fluorescence; inhibition, % at 5.96 µM; 300,000 tested, 0.49% active;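 active means inhibition above the mean of all tested compounds plus 3 SD, set per screening campaign, cut at about 17% in these data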;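 further: 0% = plate median of test compound wells and 100% = 1 µM Z-Phe-Ala-diazomethylketone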
PP1 inh: PP1-alpha (human) inhibition in PP5 counter-screen. P62136. purified PP1alpha, OMFP fluorescence. inhibition, % at 6.7 µM. 320,000 tested, 0.9% active. AID 2235;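 active means inhibition above the mean inhibition of all tested compounds plus 3 SD, computed separately for each screening campaign, cut at about 15% in these data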
Target sequence (P62136 whole entry, looked up): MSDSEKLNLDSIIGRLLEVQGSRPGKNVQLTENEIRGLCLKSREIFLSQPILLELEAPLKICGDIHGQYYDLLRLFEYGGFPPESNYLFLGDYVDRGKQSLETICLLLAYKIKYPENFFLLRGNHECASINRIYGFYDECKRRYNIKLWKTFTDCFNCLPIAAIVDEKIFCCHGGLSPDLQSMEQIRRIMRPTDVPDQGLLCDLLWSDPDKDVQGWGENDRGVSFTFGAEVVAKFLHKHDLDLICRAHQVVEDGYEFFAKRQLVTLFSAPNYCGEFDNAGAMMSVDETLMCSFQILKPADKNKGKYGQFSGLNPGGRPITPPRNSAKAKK
TPT1 inh: blocks Candida albicans tRNA 2'-phosphotransferase; recombinant caTPT1, FP RNA substrate dephosphorylation; inhibition, % at 5 µM; 300,000 tested, 0.81% active;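 active means inhibition above the mean of all tested compounds plus 3 SD, set per screening campaign, cut at about 24% in these data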;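 further: plate controls were DMSO alone for no effect and ferristatin control at 100 nM for full effect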
JMJD2C inh: blocks human GASC-1 demethylase activity. Q9H3R0. GST-JMJD2C(1-420) H3K9me3 demethylation, DELFIA europium. inhibition, % at 2.35 µM. 330,000 tested, 0.069% active. AID 2099;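 active means more than half of a compound's replicate wells show inhibition beyond 50%, single wells judged on their own value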;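 further: signal counts dimethyl H3K9 product captured on neutravidin plate; 0% = median of DMSO wells and 100% = 0.3 times that DMSO median; strong numbers were not always called active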
* hit, by the source's call; . = not tested or not shown; & = joins results of further samples. Not all compounds are listed; rates above refer to the full screens.

Every second line gives: Efflux pump inh	PP5 inh	LYPLA2 counter	HCV core dimer	CTSL1 counter	PP1 inh	TPT1 inh	JMJD2C inh
- O=C(/C=C/c1cn(CC(O)CN2CCCCCC2)c2ccccc12)c1cccs1 (stereo unspecified)
 : -0.4	-0.2	-7	0	-2	0	57*	9
- c1cc2c3c(cccc3c1)C(N1CCCCCC1)=N2
 : -0.1	0.9	4	-4	0	-2	-15	10
- COc1ccc(OC)c(S(=O)(=O)Nc2ccccc2SC)c1
 : 0.1	-0.5	-3	3	-4	-2	-1	18
- CN(C)CC(C)(C)NS(=O)(=O)c1ccc(Cl)cc1
 : 0.2	2.9	3	-5	2	2	-2	5
- COc1ccc(-c2cn[nH]c2-c2ccc(OCc3ccc(F)cc3)cc2O)cc1OC
 : -0.1	4.4	1	0	-1	4	-1	-16
- N=c1c(-c2nc3ccccc3[nH]2)cc(C(=O)c2ccco2)nn1-c1ccccc1
 : 0.1	2.2	-6	4	10	-4	0	13
- Cc1nn(-c2ccc(C(=O)O)cc2)c(=O)c2ccccc12
 : 0.1	1.8	1	-8	2	0	-2	-6
- CCn1c(CNC(=O)COc2ccc(C(C)C)cc2)nnc1SCC(=O)Nc1ccccc1
 : 0.1	2.6	3	-2	1	5	2	5
- COc1ccccc1OCc1nnc(SCC(=O)Nc2ccc(C)cc2)n1C
 : 0.0	2.6	8	2	0	-2	-2	1
- COC(=O)c1cc(=O)n(Cc2ccc3c(c2)OCO3)c(=Nc2ccc(F)c(Cl)c2)s1
 : 0.0	5.2	5	18	-2	1	-3	4
- O=C(NC1CCCCC1)C(c1cccs1)N(C(=O)c1ccccn1)c1ccccc1 (stereo unspecified)
 : 0.0	2.5	0	5	-1	-3	2	-2
- CC/C(=N/NC(=O)c1ccccc1)c1ccc(OCCN2CCOCC2)cc1
 : -0.2	2.6	-3	-2	2	0	-2	-15
- CC1(C)CC2CN(C(=O)Cc3ccccc3)C(C)(C2)C1 (stereo unspecified)
 : 0.1	2.2	-8	-8	-10	5	-7	3
- COc1ccc(-n2c(SCC(=O)Nc3cc(C)on3)nc3c(c2=O)SCC3)cc1
 : 0.0	1.2	-6	0	0	-1	-1	0
- CCCn1c(N2CCN(Cc3cccc(C)c3)CC2)nc2c1c(=O)[nH]c(=O)n2C
 : -0.6	1.9	5	-13	-3	1	-2	8
- COC(CNC(=O)c1ccc(N2CCc3ccccc32)c([N+](=O)[O-])c1)OC
 : -5.8	-0.8	9	-10	0	-2	-3	-5
- COc1ccc(CNc2nc(SC)n[nH]2)cc1OC
 : 0.1	4.0	5	0	3	-5	-3	-7
- CC(NC(=O)Nc1ccccc1C(F)(F)F)C1CCCO1 (stereo unspecified)
 : 0.2	3.6	0	-4	-2	-10	-1	-7
- COc1ccc(C)cc1NC(=O)CN1CCN(c2ccccc2F)CC1
 : 0.1	3.8	-4	2	-4	-2	2	-1
- COc1ccc(CC(CN)c2ccccc2)cc1 (stereo unspecified)
 : 0.1	2.6	2	1	4	9	3	8
- CN(C)c1oc(/C=C/c2ccccc2)nc1C#N
 : -0.1	0.5	-1	-14	8	-1	0	-8
- CS(=O)(=O)c1ccc(C(=O)OCC(=O)NC(=O)Cc2ccccc2)cc1
 : -0.3	0.0	7	-1	-8	-4	0	6
- Cc1nc([N+](=O)[O-])c(N2CCN(Cc3ccccc3)CC2)n1Cc1ccccc1
 : 0.0	-2.0	-1	2	2	-3	-3	-11
- Cc1ccc(NC(=O)c2ccc(N/N=C/c3cccc(O)c3)c([N+](=O)[O-])c2)cc1
 : 0.0	4.5	-15	36	0	-2	0	1
- COC(=O)/C=C/c1ccc(OC(=O)OC)c(OC(=O)OC)c1
 : 0.1	1.3	7	-6	-7	0	1	17
- CC1(C)NC(=O)N(CNc2cc(Cl)ccc2Cl)C1=O
 : -0.1	1.9	3	0	1	-3	4	12
- CC(=O)SC(C[N+](=O)[O-])c1cn(C(C)=O)c2ccccc12 (stereo unspecified)
 : 0.1	0.0	5	-3	-16	-2	3	6
- Cc1cccc(Cn2c(=O)n(Cc3ccco3)c(=O)c3ccccc32)c1
 : 0.1	-2.3	-7	2	0	1	3	-4
- CC1(C)Cc2nc3sc4c(=O)[nH]cnc4c3cc2CS1
 : 0.2	3.3	6	-14	0	-2	-3	-4
- COCCN1C(=O)Cc2c1nc(N)c1c(N)nc(N3CCN(c4ccc(F)cc4)CC3)c(C#N)c21
 : 0.2	0.6	1	28	1	19*	28*	2
- COc1cc(C(=O)OC2CCCCC2=O)cc(OC)c1C (stereo unspecified)
 : 0.0	1.9	-4	-1	-3	0	-1	0
- C=CCn1c(CCNC(=O)c2ccccc2F)nnc1SCC(=O)Nc1ccccc1F
 : 0.3	1.6	14	-12	-4	-2	-2	0
- Cc1cc(-c2ccccc2)c2c3c(cn2n1)c(=O)n(C)c(=O)n3C
 : 0.0	-0.2	5	2	4	-2	3	20
- COc1ccccc1C1/C(=C(/O)c2ccccc2)C(=O)C(=O)N1CC(C)O (stereo unspecified)
 : 0.0	2.9	1	-3	5	-2	1	2
- O=C(NCCN1CCOCC1)c1ccc2c(c1)N(Cc1ccc(Cl)cc1)CCS2
 : -0.1	5.3	15	2	4	-3	-4	1
- C=CCN1C(c2ccc(Br)cc2)=CS/C1=C(/C#N)c1nnc(N2CCOCC2)n1-c1ccccc1
 : 0.0	2.2	7	12	0	0	-2	-9
- CC1C(O)=C(c2nc3ccccc3[nH]2)C(=N)N1c1ccccc1 (stereo unspecified)
 : -0.1	-1.1	5	-4	3	-5	2	0
- CN(C)c1oc(-c2ccc(OCc3ccccc3)cc2)nc1C#N
 : -0.1	0.3	12	3	3	1	-2	0
- Cc1cc(N2CCN(c3ccccc3)CC2)n2cc(-c3ccccc3)nc2n1
 : 0.0	3.0	6	5	5	3	-6	-7
- COC(=O)c1ccc(CSc2nc3c(c(=O)n2-c2ccccc2)SCC3)o1
 : 0.0	-0.8	3	8	2	-3	1	4
- C=CCOC(=O)C1=C(C)NC(=O)NC1c1ccc(OC(=O)c2ccco2)c(OC)c1 (stereo unspecified)
 : -0.2	0.1	-1	-2	1	2	-8	44
- N#Cc1nc(-c2ccc(OCc3ccc(Cl)cc3)cc2)oc1NCCCn1ccnc1
 : 0.2	4.6	1	-3	-4	-2	1	-2
- CCn1c(COc2ccc(C)cc2)nnc1SCC(=O)NNC(=O)c1ccc(OC)cc1
 : -0.1	2.0	7	-3	0	4	-4	-9
- Cc1nc2cc(F)ccc2n1C1CCN(S(=O)(=O)c2ccccc2)CC1
 : -0.1	0.9	-4	1	0	4	1	0
- CS(=O)(=O)Nc1ccccc1C(=O)N1CCN(c2ccccc2)CC1
 : -0.1	1.1	6	5	3	-3	3	6
- O=C(COc1ccc2ccccc2c1)N/N=C/c1ccccn1
 : 0.1	0.7	-8	4	5	1	1	-6
- Cc1ccc(OCCCC(=O)Nc2ccc(S(N)(=O)=O)cc2)cc1
 : -0.1	2.4	-5	8	-3	-2	0	-10
- CCn1c(SCC(=O)NC(C)(C)C)nnc1-c1ccoc1C
 : 0.0	-1.3	0	1	1	-1	1	-3
- Cc1cc(C)cc(NC(=S)NC2CC3CCCC(C2)N3C2CCCC2)c1 (stereo unspecified)
 : 0.0	-0.5	3	-1	3	-5	2	4
- COc1cc([N+](=O)[O-])ccc1NC(=O)COC(=O)CCOc1ccc(C)cc1
 : -0.1	3.6	5	.	.	-2	.	12

New compounds follow
Every second line gives: Efflux pump inh	PP5 inh	LYPLA2 counter	HCV core dimer	CTSL1 counter	PP1 inh	TPT1 inh	JMJD2C inh
- COc1ccc2cc(-c3[nH]ncc3CN3C[C@@H]4CCC[C@H]3C4)ccc2c1
 : 0.0	-10	-7	1	12	0	5	-12
- O=C(c1nc2ncccn2n1)N1CCN(c2ccc(F)cc2)CC1
 : -0.1	1.7	-2	-12	1	0	13	3
- CCC(C)(C)n1nnnc1C(c1cc2cccc(C)c2[nH]c1=O)N1CCN(C(=O)c2ccco2)CC1 (stereo unspecified)
 : -0.1	-0.8	3	0	1	-2	-3	9&1
- Cn1c(SCC(=O)Nc2ccccc2F)nnc1-c1cccs1
 : 0.0	-0.2	1	-18	4	1	-6	-27
- N=c1n(Cc2ccccc2)c2ccccc2n1CC(O)c1ccco1 (stereo unspecified)
 : -0.1	-0.6	0	-3	-3	1	6	17
- COc1cc(/C=N/Nc2ccc(Cl)c(C(=O)O)c2)ccc1OC(=O)c1ccco1
 : 0.1	-6.9	-3	-2	-1	4	0	-4
- Cn1c(=O)c2c(nc3n2CCCN3CCc2ccccc2)n(C)c1=O
 : 0.3	1.8	0	0	0	-5	2	-19
- COc1cc(/C=C2\SC(=O)NC2=O)ccc1Oc1cnccn1
 : -0.1	4.2	2	0	2	2	-3	16
- Cc1c(C=O)c2ccccn2c1C(=O)c1ccc(F)cc1
 : -0.1	0.7	0	1	5	0	-1	0
- COC(=O)Cn1c(=O)c2c(nc3n2CCCN3CCc2ccccc2)n(C)c1=O
 : 0.1	4.2	4	-3	-2	1	-2	-4
- COc1ccc(/C(C)=N/NC(=O)c2ccc(NS(=O)(=O)c3cccs3)cc2)cc1
 : -0.1	1.8	-6	0	9	-2	2	-3
- Cc1ccc(-c2nc(CN(C)C3CCOCC3)c(C)o2)s1
 : 0.0	-1.3	2	-6	0	3	3	4
- COc1ccc(C2SCC(C(=O)NCc3ccc(F)cc3)N2C(C)=O)cc1 (stereo unspecified)
 : 0.2	2.7	-3	-4	1	-5	-2	-5
- CCCOc1ccc(C(=O)C(CN2CCOCC2)c2ccccc2)cc1 (stereo unspecified)
 : 0.1	-0.3	-7	2	-2	9	-5	-26
- COc1ccc(C2CC(c3ccc(C)cc3)Nc3nc(N)nn32)cc1 (stereo unspecified)
 : 0.5	1.6	-5	1	-5	-3	3	-11
- Nc1nc2n(n1)C(c1ccc(F)cc1)CC(c1ccc(F)cc1)N2 (stereo unspecified)
 : 0.4	0.1	-5	-3	2	-3	-1	-7
- CCOC(=O)[C@@H](C)N(Cc1ccc(OC)cc1)S(=O)(=O)N(Cc1ccccc1)[C@H](C(=O)OC)C(C)C
 : -0.1	3.1	13	.	.	-3	.	-10
- COc1ccc(OC)c(NS(=O)(=O)Cc2ccccc2)c1
 : 0.3	2.7	1	13	-5	15	-1	1
- O=C1c2[nH]nc(-c3ccccc3O)c2C(c2cccc(Cl)c2)N1Cc1ccco1 (stereo unspecified)
 : 0.1	8.4	-6	4	3	9	1	-2
- COc1ccc(N2C(=O)C(Cl)=C(N(CCO)Cc3ccccc3)C2=O)cc1
 : 0.0	-0.3	11	-1	4	-1	1	3
- COc1ccccc1C(=O)Nc1ccc2c(c1)OCCO2
 : -0.1	-0.4	-1	-4	-1	-3	6	0
- CN1CCN(C(=S)c2cn(Cc3ccc(F)cc3)c3ccccc23)CC1
 : -0.2	2.9	5	-3	2	0	-1	5
- O=C(Oc1coc(CSc2nnc(NC(=O)C3CC3)s2)cc1=O)c1c(F)cccc1F
 : -0.1	-3.3	0	8	1	-1	-1	9
- COC(=O)CSc1nnc(-c2ccoc2C)n1-c1ccc(C)cc1
 : 0.0	0.8	5	-2	-1	0	0	6

Reformatted: entries from further up
SMILES: O=C(Oc1coc(CSc2nnc(NC(=O)C3CC3)s2)cc1=O)c1c(F)cccc1F
  Efflux pump inh: -0.1 | PP5 inh: -3.3 | LYPLA2 counter: 0 | HCV core dimer: 8 | CTSL1 counter: 1 | PP1 inh: -1 | TPT1 inh: -1 | JMJD2C inh: 9
SMILES: COC(=O)CSc1nnc(-c2ccoc2C)n1-c1ccc(C)cc1
  Efflux pump inh: 0.0 | PP5 inh: 0.8 | LYPLA2 counter: 5 | HCV core dimer: -2 | CTSL1 counter: -1 | PP1 inh: 0 | TPT1 inh: 0 | JMJD2C inh: 6
